# Yeast UUG start – modulators of yeast start codon fidelity, primary screen, whole organism, S. cerevisiae, single point, plate reader. S. cerevisiae UUG-firefly luciferase reporter, luminescence/redox ratio. activity score, % at 18.7 µM. actives 0.13% (n = 350,000);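 active means replicate mean at a twofold rise or more, about +100% in these data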;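 further: firefly luciferase made from a UUG start codon reports start codon fidelity; reporter light over untreated wells divided by growth signal over untreated wells; some hits fall short of that in this replicate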
# MT1-MMP act inh – blockers of MT1-MMP proenzyme processing, primary screen, HT1080 RFP-PRO-GFP cells, GFP/RFP fluorescence | actives 0.061% (n = 360,000) | GFP/RFP ratio fluorescence, overnight; percent of plate control window, DMSO zero | AID 651647, 2012 | Matrix metalloproteinase-14 (Homo sapiens), P50281 | GFP/RFP ratio change, % at 20 µM;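 active means GFP/RFP ratio change of at least 30% with cell ATP level not reduced by more than half and red fluorescence within 50% of control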; further: strong numbers were not always called active
#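 Test system: HT1080 RFP-PRO-GFP cells; Benchmarks: DMSO and RFP-L50D-GFP cell wells; Timing: cells overnight before dosing, compound overnight, 37 °C, 5% CO2; Compound: one 20 µM compound dose with 1% DMSO; Read-out: GFP/RFP fluorescence ratio.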
# Rce1 inhib – yeast Rce1p protease inhibitors, primary screen, biochemical, fluorescence, cell-free homogeneous. CAAX prenyl protease 2 (Saccharomyces cerevisiae (strain ATCC 204508 / S288c)), Q03530. AID 2563, 2010. actives 0.27% (n = 290,000). calls only. yeast membranes, quenched prenylated peptide cleavage fluorescence;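 active means fall in fluorescence gain of 50% or more versus controls, with final raw signal at or below 3038400; inconclusive means same 50% fall but final raw signal above 3038400; inactive means fall in fluorescence gain under 50%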;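 further: plate controls were neutral control wells for no effect and wells lacking membranes for full effect; tested at 10 µM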
# Target sequence (Q03530 whole entry, looked up): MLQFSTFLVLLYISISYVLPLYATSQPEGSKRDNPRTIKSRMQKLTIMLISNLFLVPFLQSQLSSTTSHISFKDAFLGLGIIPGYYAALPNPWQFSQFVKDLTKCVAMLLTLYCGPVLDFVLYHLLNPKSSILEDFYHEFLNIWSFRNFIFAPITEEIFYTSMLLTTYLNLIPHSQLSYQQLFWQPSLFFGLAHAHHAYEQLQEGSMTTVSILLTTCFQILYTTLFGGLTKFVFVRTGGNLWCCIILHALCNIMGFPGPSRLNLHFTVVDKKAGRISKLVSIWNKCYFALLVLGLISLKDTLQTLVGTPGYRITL
# PABP polyA inh – PABP poly(A) RNA binding inhibitors, primary screen, biochemical, fluorescence polarization, uHTS. Polyadenylate-binding protein 1 (Homo sapiens), P11940. inhibition, % at 35 µM. actives 1% (n = 290,000). AID 2014, 2009;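 active means 50% or more with normal probe brightness, or confirmed in later tests; inconclusive means above 50% with abnormal brightness, or retests that disagree; inactive means below 50% or failed in later tests; about a fifth of its hits are not listed in these tables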;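 further: calls also rest on retests at 20 µM and on dose response follow-up; controls were probe without protein and protein plus probe with vehicle; some compounds called inactive have numbers as strong as hits; many hits fall short of the cut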
# Env fusion inh – inhibitors of HIV-1 Env-driven cell-cell fusion, primary screen, HeLa-JRFL effector, CEM21 target cells, luciferase. inhibition, % at 12.3 µM. actives 1.1% (n = 360,000);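 active means mean replicate inhibition score of at least 50 and every replicate individually at or above 50; inconclusive means only one of the two criteria met; inactive means mean below 50 and not all replicates reaching 50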;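 further: 0% = plate neutral controls and 100% = maraviroc near 300 nM; one replicate is shown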
# CSC inhib – cancer stem cell viability inhibitors, primary screen, luminescence; inhibition, % at 7.5 µM; cancer stem cell-like cells viability; actives 1.1% (n = 300,000);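 active means mean at 75% or more and at least half the replicates too; inconclusive means mean and replicates disagree; tested in HMLE shEcad cells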;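 further: 0% = median of negative and 100% = median of positive control wells; the first replicate is given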
# eIF4H FP inh – human eIF4H binding inhibitors, primary screen, translation initiation inhibitor project, biochemical, uHTS, fluorescence polarization; actives 0.94% (n = 290,000); Eukaryotic translation initiation factor 4H (Homo sapiens), Q15056; eIF4H fluorescence polarization binding assay; inhibition, % at 35 µM;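 active means 50% or more with normal probe brightness, or confirmed in later tests; inconclusive means above 50% with abnormal brightness, or retests that disagree; inactive means below 50% or failed in later tests; about a fifth of its hits are not listed in these tables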;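 further: calls also rest on retests at 20 µM and on dose response follow-up; 0% = protein and probe with vehicle and 100% = probe without protein; strong numbers were not always called active; many hits fall short of the cut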
# eIF4H FP inh retest – also measured in eIF4H FP inh; calls as there; inhibition, %; compound at 20 µM; confirmation average;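 mean of two retest wells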
# PABP polyA inh retest – second read-out of PABP polyA inh, no call of its own (marks repeat the call); inhibition, %; compound at 20 µM; confirmation repeats;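 mean of two retest wells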
# MT1-MMP act inh RFP – second read-out of MT1-MMP act inh, no call of its own (marks repeat the call); RFP signal change, %; measured here: RFP expression control read;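 0 = vehicle wells; hits needed this value within 50% of zero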
# Starred values were filed as active, the others as inactive; i = inactive; ? = inconclusive; . = not tested or not shown.
SMILES,Yeast UUG start,MT1-MMP act inh,MT1-MMP act inh RFP,Rce1 inhib,PABP polyA inh,Env fusion inh,CSC inhib,eIF4H FP inh,others
O=C(NCC1CCCO1)Nc1cccc(Cl)c1 (stereo not drawn),-12,-6,2,i,0,.,-14,-6,
Cc1ccc(C(=O)Cn2nnc(-c3cccs3)n2)cc1,.,-1,-1,i,9,10,-8,-5,
CCc1nnc(NC(=O)CSc2nc3[nH]ncc3c(=O)[nH]2)s1,-17,3,6,i,-12,-55,18,-1,
Oc1ccccc1N=Nc1nc(-c2ccccc2)c(-c2ccccc2)[nH]1,-36,10,-14,i,-7,.,.,2,
Cn1cc(Cl)c(C(=O)NC2CCCC2)n1,9,1,6,i,-11,0,-1,-10,
O=C(CCNC(=O)Cn1ccc2ccccc2c1=O)NCCN1CCc2ccccc2C1,-7,-3,5,i,-6,4,6,-5,
OC[C@@H]1CN(Cc2ccncc2)C[C@H](n2cnc3c(NCc4ccco4)ncnc32)O1,-11,-4,-1,.,.,-12,.,.,
Cc1ccc(SC[C@H](C)CN2CC[C@H](C(C)(C)C)CCC2=O)cc1,2,-3,-7,i,-3,26,76*,-8,
COC(=O)Nc1sc2c(c1C(N)=O)CCC(C)C2 (stereo not drawn),.,0,1,i,1,19,-1,0,
COC(=O)c1ccc2c(=O)n(-c3ccccc3)c(SCN3C(=O)c4ccccc4C3=O)nc2c1,-11,-3,-6,i,-7,.,-5,-2,
CCCCCCCN1C=CC(=O)CC1,-8,5,3,i,-7,-29,12,-5,
O=c1cc(-c2cccc(F)c2)oc2ccccc12,-21,0,-2,.,.,-310,.,.,
NC(=O)[C@@H]1CCCN1Cc1nc(Cc2ccccc2F)no1,-21,-15,-26,i,-9,2,-12,-2,
O=C(CNS(=O)(=O)c1ccc(Br)cc1Cl)OCC(=O)N1CCCC1=O,-11,4,5,.,.,.,-3,.,
Cc1ccc(OCC(O)CN2CCOCC2)c(C)c1 (stereo not drawn),-8,2,2,i,-5,-9,-8,-3,
C=CC#CC1(O)CC(C)[N+](C)(C)CC1C (stereo not drawn),.,-2,1,i,?,-11,-6,?,
Cc1ccc(NCCC(=O)c2ccc(Cl)cc2)cc1,-15,-2,0,i,3,-62,.,-16,
COc1ccccc1N1CCN(CC(=O)Nc2ccc(C)c(F)c2)CC1,-9,2,4,i,6,.,-7,2,
Cc1ccccc1NC(=S)c1nc2ccccc2[nH]1,-33,6,1,i,-10,-82,26,13,
CO/N=C(/C)CCS(=O)(=O)c1ccccc1,.,-1,1,i,0,10,0,-7,
COC(=O)c1sc(S(=O)(=O)Nc2c(C)nn(C)c2C)c(C(=O)OC)c1C,-4,2,6,.,.,-337,.,.,
O=C(OCC(=O)N1CCCc2ccccc21)c1ccc(Br)o1,-3,-2,-3,i,6,.,-6,-2,
Cc1cc(NC(=O)CSc2ncnc3c2cnn3-c2cccc(Cl)c2)no1,-19,0,-4,i,-2,9,-6,-7,
O=C(c1ccc(-c2ccc([N+](=O)[O-])cc2Cl)o1)N1CCOCC1,.,3,2,i,-5,7,-7,-1,
COc1ccc(NC(=O)Nc2ccccc2C)c(OC)c1,-7,3,3,i,-3,.,-9,-9,

# The final three compounds of the section before are carried over, then new ones follow:
SMILES,Yeast UUG start,MT1-MMP act inh,MT1-MMP act inh RFP,Rce1 inhib,PABP polyA inh,Env fusion inh,CSC inhib,eIF4H FP inh,others
Cc1cc(NC(=O)CSc2ncnc3c2cnn3-c2cccc(Cl)c2)no1,-19,0,-4,i,-2,9,-6,-7,
O=C(c1ccc(-c2ccc([N+](=O)[O-])cc2Cl)o1)N1CCOCC1,.,3,2,i,-5,7,-7,-1,
COc1ccc(NC(=O)Nc2ccccc2C)c(OC)c1,-7,3,3,i,-3,.,-9,-9,
CCn1nc(C)c(NC(=O)CSc2nnc(-c3ccco3)n2C)c1C,-23,-1,-6,i,6,.,-10,-5,
CCC1(CC)Cc2ccccc2-c2[nH]c(=S)[nH]c(=O)c21,.,-1,-2,i,.,-11,6,.,
CNC(=O)CSc1nnc(CCc2ccccc2)n1-c1ccccc1,-12,-3,2,i,10,-10,-10,-6,
Cc1cc(C)n2nc(C(=O)N/N=C/c3ccc(Cl)cc3)nc2n1,.,-1,-3,i,-11,8,.,3,
CN1CC=C2C(C#N)=C(N)C(C#N)(C#N)C(c3ccsc3)C2C1 (stereo not drawn),-11,-55,13,i,?,.,9,?,
O=C(COc1cc(Cl)ccc1Cl)Nc1ccc2c(c1)CCC2,.,3,3,i,6.4*,5,-7,64*,eIF4H FP inh retest=100*;PABP polyA inh retest=92*
COc1ccc2c(c1)C(C)(CCN)C(=O)N2C (stereo not drawn),2,-2,3,i,.,2,-9,.,
CCCc1nnc(SCC(=O)N2CCCCC2C)n1CC1CCCO1 (stereo not drawn),-17,1,5,.,-6,-51,-10,4,
CSCC(C)N1CCC(CO)(CCCc2ccccc2)CC1 (stereo not drawn),.,-1,1,i,0,-1,8,-2,
CC(=O)Nc1cc(-c2ccc(C(=O)NC3CC3)cc2)cn2c(-c3cccc(C(C)=O)c3)cnc12,4,0,-1,.,.,8,.,.,
Cc1cnc(C)c(Nc2nc(C(N)Cc3ccc(F)cc3)cs2)n1 (stereo not drawn),-46,-6,-1,.,.,-16,.,.,
Nc1ncnc2oc(-c3ccco3)c(-c3ccco3)c12,-8,.,.,i,94*,.,.,104*,
Cc1ccc(S(=O)(=O)N(C)C)cc1NC(=S)NCCc1ccccn1,.,0,1,i,4,-14,-2,76,eIF4H FP inh retest=-8;PABP polyA inh retest=5
CCOc1ccc(CCNC(=O)CCc2nnc3ccc(N4CCOCC4)nn23)cc1,7,-1,6,i,-1,14,.,-6,
COc1ccc(NC(=O)CSc2n[nH]c(N)n2)cc1OC,.,1,5,i,8,-4,-11,-4,
CCOc1ccc(/C=C2/C(=O)N(c3ccc(OC)cc3)C(=S)N2CC(=O)OC)cc1OCC,5,-5,-2,i,-5,8,.,-9,
CCCNCC(O)COc1ccccc1C(=O)CCc1ccccc1 (stereo not drawn),-4,2,0,i,5,-28,4,-8,
O=C(NCc1ccc(F)cc1)C1CCCN(C(=O)NCc2ccccc2)C1 (stereo not drawn),-2,5,3,i,-3,10,-17,-8,
CC1SC(c2ccc(F)cc2)N(CCc2ccccc2)C1=O (stereo not drawn),-10,-5,-3,i,-2,-20,.,-1,
CCOC(=O)C1(Cc2ccccc2)CCN(Cc2cccc3nccnc23)CC1,-22,-4,-3,i,29,28,1,-7,
CN1CCC(N(C)C(=O)Cc2ccccc2[N+](=O)[O-])CC1,-8,3,4,i,-20,2,-10,-1,
COc1ccc(NC(=O)c2cc(S(=O)(=O)N(Cc3ccccc3)c3ccccc3)ccc2Cl)cn1,.,-16,-18,i,10,.,16,21,
CC(=O)OC(Cn1ccnc1)c1ccccc1 (stereo not drawn),2,4,7,i,9,.,-9,-5,
CC(/C=C/c1cccc([N+](=O)[O-])c1)=N/NC(=O)c1cccnc1,-7,-1,-1,i,-8,14,11,-6,
CNC(=O)CCCc1nc(-c2ccccc2Cl)no1,-17,0,2,i,3,-17,-1,4,

# Six structures from above, sorted by number of heavy atoms, low to high.
SMILES,Yeast UUG start,MT1-MMP act inh,MT1-MMP act inh RFP,Rce1 inhib,PABP polyA inh,Env fusion inh,CSC inhib,eIF4H FP inh,others
CNC(=O)CCCc1nc(-c2ccccc2Cl)no1,-17,0,2,i,3,-17,-1,4,
CCC1(CC)Cc2ccccc2-c2[nH]c(=S)[nH]c(=O)c21,.,-1,-2,i,.,-11,6,.,
CN1CCC(N(C)C(=O)Cc2ccccc2[N+](=O)[O-])CC1,-8,3,4,i,-20,2,-10,-1,
O=C(COc1cc(Cl)ccc1Cl)Nc1ccc2c(c1)CCC2,.,3,3,i,6.4*,5,-7,64*,eIF4H FP inh retest=100*;PABP polyA inh retest=92*
CC(/C=C/c1cccc([N+](=O)[O-])c1)=N/NC(=O)c1cccnc1,-7,-1,-1,i,-8,14,11,-6,
CCCNCC(O)COc1ccccc1C(=O)CCc1ccccc1 (stereo not drawn),-4,2,0,i,5,-28,4,-8,

# Next part:
SMILES,Yeast UUG start,MT1-MMP act inh,MT1-MMP act inh RFP,Rce1 inhib,PABP polyA inh,Env fusion inh,CSC inhib,eIF4H FP inh,others
CC(OC(=O)c1oc2ccccc2c1COc1ccccc1)C(N)=O (stereo not drawn),.,3,-2,i,1,13,-14,5,
O=C(CCl)Nc1ccc(N2CCCCCC2)cc1,-6,-25,1,i,19,0,18,1,
O=C(NC1CCN(Cc2ccccc2)CC1)c1ccccc1NS(=O)(=O)c1ccc(F)c(F)c1,11,2,-1,.,.,1,.,.,
CN(CC(=O)Nc1c(Cl)cccc1Cl)C(=O)CCCN1C(=O)c2ccccc2C1=O,-5,4,-1,i,8,-36,0,-15,
CC[C@]12c3[nH]c4ccc(Cl)cc4c3CCN1C(=O)[C@@H](CC(=O)NCc1cccc(C(F)(F)F)c1)C[C@@H]2C(=O)N1CCN(C(=O)c2ccco2)CC1,18,2,-10,.,.,-51,.,.,
O=C(COc1cccnc1[N+](=O)[O-])Nc1ccc(Cl)c(S(=O)(=O)N2CCOCC2)c1,0,2,1,i,14,11,8,4,
CC1(C)Cc2cccc(OCC(=O)Nc3ccc(OCC(N)=O)cc3)c2O1,-15,-2,1,i,-16,2,0,6,
Nc1nc(NCCc2ccccc2)nc(NCc2ccccc2)c1[N+](=O)[O-],.,-2,-5,i,-1,-9,5,-7,
CN1CCN(C2CCN(c3cccc(Cl)c3)CC2)CC1CCO (stereo not drawn),2,-1,3,i,-6,-11,-1,-1,
CC(=O)NN1C(=O)c2ccc(Oc3cccc([N+](=O)[O-])c3)cc2C1=O,-3,3,0,i,10,-4,-14,4,
COc1ccc(NS(=O)(=O)c2cc(N/C(=N\S(=O)(=O)c3ccccc3)c3ccc(F)cc3)ccc2Cl)cc1,.,-3,-5,i,12,-116,46,-1,
CCOC(=O)c1ccc(NC(=O)CSc2nc(C)nc3c2c(=O)n(C)c(=O)n3C)cc1,-7,0,-4,i,-4,9,-9,1,
O=C(Cc1c[nH]c2ccccc12)OCC(=O)c1ccccc1,-10,-2,0,i,9,.,.,-12,
Cc1cccc(OCC(=O)NCC2CCCO2)c1C (stereo not drawn),.,-2,-3,i,-11,0,-7,2,
Cc1ccc(NC(=O)CCCn2nc(C)c3c(C)n(-c4ccccc4)nc3c2=O)c(Cl)c1,1,-4,-1,i,-9,-6,.,-6,

# Source: PubChem BioAssay

# This is a random part of the collection; any-hit rate near 3%.
